High-throughput results from PubChem BioAssay.
Beta apoptosis: inhibitors of cytokine-induced beta cell apoptosis, primary screen, luminescence; 300,000 tested, 0.8% active; AID 435005, 2010; INS-1E cytokine-induced death, ATP luminescence, 48 h; percent of positive-control rescue, neutral wells zero; protection from apoptosis, % (no concentration beside the values);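 active = all replicates at 75% or more, or half of them and the mean; inconclusive = half reach 75% but not the mean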;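 also: 0% = cytokine-treated negative control wells and 100% = positive control rescue; higher means more ATP so stronger rescue from cytokine killing; wells of about 40 µL received 100 nL stock; the first replicate is given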
T cruzi repl: inhibitors of intracellular T. cruzi growth, primary screen, luminescence, NIH3T3 host cells | T. cruzi beta-gal in NIH3T3, 90 h | inhibition, % (test concentration not listed) | 300,000 tested, 1.4% active;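 active = mean inhibition across valid replicates above about 55%, limit read from the data; inconclusive = mean below that limit but half or more replicates reach it; inactive = mean below it, under half of replicates reach it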;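 also: signal also drops with host cell toxicity which is not excluded here; 0% = plate median of DMSO wells and 100% = zero luminescence signal; higher percent means less beta-gal luminescence so fewer parasites; stock transfer was 50 nL into about 50 µL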
AF4-AF9 inh: inhibitors of AF4 peptide binding to AF9, primary screen, biochemical, AlphaScreen, biotin-AF4 peptide, FLAG-AF9, single point; Protein AF-9 (Homo sapiens), P42568; inhibition, % at 10 µM; 350,000 tested, 0.47% active; AID 651704, 2012;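 active = every replicate reaching a set inhibition limit, whatever the replicate mean, cut at about 25% in these data; inconclusive = mean inhibition reaches that limit but some replicates miss it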;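 also: 0% = plate neutral control median and 100% = total signal loss; the record names both 10 and 1 µM as test concentration; the first replicate is given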
Vif A3G: inhibitors of Vif binding to APOBEC3G peptide, primary screen, biochemical, TR-FRET, GST-Vif 1-94, biotin-A3G peptide, dose response retest (AID 1117319) | Virion infectivity factor (Human immunodeficiency virus type 1 group M subtype B (isolate … | TR-FRET GST-Vif / biotin-A3G peptide binding; higher % means a stronger effect; test concentration not given here; strong numbers were not always called active | inhibition, %; hits with a dose series show IC50 in µM | 260,000 tested, 0.57% active;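 active = above the screen mean plus three standard deviations and confirmed in dose response; inconclusive = results disagree or hit not tested in dose response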;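 also: Vif residues 1-94 fused to GST binding biotinylated APOBEC3G peptide 110-148; 0% = full assay without inhibitor and 100% = GST in place of GST-Vif; retest series ran down from 100 µM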
LANA-H2B inh: blockers of LANA interaction with H2A/H2B – biochemical, FP readout, HTS, primary screen; 320,000 tested, 0.6% active; cell-free LANA-H2A/H2B peptide, fluorescence polarization; AID 2629, 2010; Protein LANA1 (Human herpesvirus 8 type P (isolate GK18)), Q9QR71; inhibition, % (concentration not given with the values); in the data active = inhibition mostly above about 10%, no sharp cut-off; inactive = mostly below about 6.7%;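 also: stock transfer was 7.5 nL into about 10 µL; 0% = median of vehicle wells and 100% = median of positive control wells; one replicate is shown; the record names a cut of 25% in any replicate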
Target sequence (Q9QR71 whole entry, looked up): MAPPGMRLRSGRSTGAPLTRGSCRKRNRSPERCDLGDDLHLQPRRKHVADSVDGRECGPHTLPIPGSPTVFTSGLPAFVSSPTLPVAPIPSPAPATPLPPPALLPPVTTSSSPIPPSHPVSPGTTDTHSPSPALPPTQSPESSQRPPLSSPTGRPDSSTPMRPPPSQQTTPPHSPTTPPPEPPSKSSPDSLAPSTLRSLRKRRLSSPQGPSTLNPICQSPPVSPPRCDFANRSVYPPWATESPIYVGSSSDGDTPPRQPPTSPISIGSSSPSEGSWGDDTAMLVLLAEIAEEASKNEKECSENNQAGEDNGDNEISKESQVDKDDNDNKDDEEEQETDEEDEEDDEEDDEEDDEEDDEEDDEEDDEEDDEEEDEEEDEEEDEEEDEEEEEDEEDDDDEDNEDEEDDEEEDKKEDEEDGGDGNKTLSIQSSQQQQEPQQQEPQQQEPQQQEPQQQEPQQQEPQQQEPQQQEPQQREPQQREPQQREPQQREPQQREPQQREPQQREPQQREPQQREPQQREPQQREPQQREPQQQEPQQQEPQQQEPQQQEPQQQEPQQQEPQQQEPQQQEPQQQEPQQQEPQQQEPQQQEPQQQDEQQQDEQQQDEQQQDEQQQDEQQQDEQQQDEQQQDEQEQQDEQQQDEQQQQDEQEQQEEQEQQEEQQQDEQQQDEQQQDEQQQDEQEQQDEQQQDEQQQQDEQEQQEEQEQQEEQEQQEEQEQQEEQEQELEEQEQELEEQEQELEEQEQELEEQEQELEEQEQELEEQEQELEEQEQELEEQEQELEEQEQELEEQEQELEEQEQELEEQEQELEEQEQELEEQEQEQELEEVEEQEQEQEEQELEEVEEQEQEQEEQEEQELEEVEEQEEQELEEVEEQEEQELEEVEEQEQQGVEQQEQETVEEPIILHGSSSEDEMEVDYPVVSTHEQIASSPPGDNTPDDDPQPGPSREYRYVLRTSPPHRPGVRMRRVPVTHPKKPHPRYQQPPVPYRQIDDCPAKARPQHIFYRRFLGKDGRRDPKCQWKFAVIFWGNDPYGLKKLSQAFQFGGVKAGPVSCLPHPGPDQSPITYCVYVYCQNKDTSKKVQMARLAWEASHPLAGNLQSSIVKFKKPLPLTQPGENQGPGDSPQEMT
Calb FLC: C. albicans growth inhibition with fluconazole, primary screen, CaCi-2 strain, Alamar Blue fluorescence | C. albicans CaCi-2 (fluconazole-resistant clinical isolate) + fluconazole, 48 h | growth inhibition, % (concentration not given with the values) | 300,000 tested, 0.57% active | AID 1979, 2009;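 active = most replicates above 75%; inconclusive = exactly half above 75%; inactive = most below 75%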;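 also: all wells also contain fluconazole at 8 µg/ml as a sub-toxic cotreatment; 0% = median of DMSO wells and 100% = median of geldanamycin control wells; wells of about 8 µL received 7.5 nL stock; the first replicate is given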
Bfl-1 A1 inh: caspase 3/7 activation in MEF A1-2A-BIM cells, primary screen, A1 inhibitor project, cell-based, luminescence, HTS; Caspase-Glo 3/7 luminescence, 3 h; percent of clofoctol response, vehicle zero; caspase activation, % (no concentration beside the values); 330,000 tested, 0.066% active; AID 2462, 2010;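 active = over half of replicate activation scores above 10%, or exactly half above 10 with the replicate mean above 10; inconclusive = replicate mean below 10 yet half the replicates above 10; inactive = over half of replicates below 10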;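 also: wells of about 30 µL received 50 nL stock; many hits fall short of the cut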
RanGTP-Imp inh: inhibitors of RanGTP-importin-beta interaction, primary screen, biochemical, FRET, CFP-Ran, YFP-importin-beta, homogeneous | cell-free CFP-Ran/YFP-importin-beta FRET ratio | inhibition, % (concentration not given with the values) | 300,000 tested, 1.1% active | AID 2216, 2009;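 active = most replicates above 15%; inconclusive = exactly half above 15%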;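 also: 0% = DMSO wells and 100% = Ran loaded with GDP instead of GTP; wells of about 40 µL received 100 nL stock; the first replicate is given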
* hit, by the source's call; ? = inconclusive; · = no result given; & = joins results of further samples.

(1) CCCCc1nnc(SCC(=O)NC2CCCCC2)n1C
(2) COc1ccc(CNC(=O)C(c2ccncc2)N(C(=O)Cc2cccs2)c2ccccc2C)cc1 (stereo not drawn)
(3) C(=C\c1ccccc1)/C=N/Nc1ccc2nncn2n1
(4) CN(C)Cc1ccc(-c2nc3cccc4c3n2CCNC4=O)cc1
(5) COc1cc(/C=C2/NC(=O)NC2=O)ccc1OCC(=O)Nc1ccc(F)cc1
(6) O=c1c2c(-c3ccccc3)csc2ncn1/N=C/c1ccc(O)c([N+](=O)[O-])c1
(7) C=CCc1ccc(OCCOc2ccc(/C=N/n3cnnc3)cc2OCC)c(OC)c1
(8) CCn1cc(C(c2ccccc2)C(C(C)=O)[N+](=O)[O-])c2ccccc21 (stereo not drawn)
Compound	1	2	3	4	5	6	7	8
Beta apoptosis	-2	-7	1	1	5	-4	1	2
T cruzi repl	-10	8	-11	47	-18	-5	38	20
AF4-AF9 inh	-0.9	·	·	-5.3	1.2	-2.8	·	0.3
Vif A3G	·	9%	·	·	·	4%	17%	-3%
LANA-H2B inh	1.0	-2.0	-0.6	-1.9	14	-3.3	3.2	-1.4
Calb FLC	-3	18	-2	-2	5	2	?	11
Bfl-1 A1 inh	0.1	0.0	0.9	0.0	0.0	0.1	-1.1	1.2
RanGTP-Imp inh	2.1	6.6	-0.2	-2.1	-2.8	-0.9	4.6	3.0

(9) COc1ccc(NC(=O)c2c(NC(=O)CNCc3ccco3)sc3c2CCC3)c(OC)c1
(10) COc1ccc(-c2csc(Nc3cccnc3)n2)cc1
(11) COc1ccc(OC)c(NC(=O)CCCN2C(=S)NC(C)(C)CC2C)c1 (stereo not drawn)
(12) Cn1cc([N+](=O)[O-])c(C(=O)N2CCN(Cc3ccc4c(c3)OCO4)CC2)n1
(13) O=C(CN(Cc1ccccc1)C(=O)CNS(=O)(=O)c1ccccc1)NCc1ccco1
(14) Fc1ccccc1NC(=S)N1CCOCC1
(15) O=C(CCNS(=O)(=O)c1ccc(OC(F)(F)F)cc1)NC1CC1
(16) Cc1ccc(NC(=O)c2ccc(NCCN)c([N+](=O)[O-])c2)cc1
Compound	9	10	11	12	13	14	15	16
Beta apoptosis	11	-14	-5	-9	-5	-2	-2	1
T cruzi repl	39	24	-1	-29	5	-10	·	-35
AF4-AF9 inh	·	·	-13	-0.1	0.4	-2.1	-1.0	-0.3
Vif A3G	-2%&-4%	5%	·	7%	2%	0%	-5%	21%
LANA-H2B inh	-8.6	0.6	5.5	1.3	-3.9	-5.2	-3.2	-1.7
Calb FLC	11	-6	-4	-5	6	7	·	-23
Bfl-1 A1 inh	0.2	0.5	0.2	0.5	0.0	1.0	0.7	-0.6
RanGTP-Imp inh	3.7	4.4	5.4	0.1	-5.2	-1.0	·	-1.1

Ordered by heavy-atom count (smallest number first): part of the list above.
(10) COc1ccc(-c2csc(Nc3cccnc3)n2)cc1
(16) Cc1ccc(NC(=O)c2ccc(NCCN)c([N+](=O)[O-])c2)cc1
(8) CCn1cc(C(c2ccccc2)C(C(C)=O)[N+](=O)[O-])c2ccccc21 (stereo not drawn)
(11) COc1ccc(OC)c(NC(=O)CCCN2C(=S)NC(C)(C)CC2C)c1 (stereo not drawn)
(12) Cn1cc([N+](=O)[O-])c(C(=O)N2CCN(Cc3ccc4c(c3)OCO4)CC2)n1
(6) O=c1c2c(-c3ccccc3)csc2ncn1/N=C/c1ccc(O)c([N+](=O)[O-])c1
(13) O=C(CN(Cc1ccccc1)C(=O)CNS(=O)(=O)c1ccccc1)NCc1ccco1
(9) COc1ccc(NC(=O)c2c(NC(=O)CNCc3ccco3)sc3c2CCC3)c(OC)c1
Compound	10	16	8	11	12	6	13	9
Beta apoptosis	-14	1	2	-5	-9	-4	-5	11
T cruzi repl	24	-35	20	-1	-29	-5	5	39
AF4-AF9 inh	·	-0.3	0.3	-13	-0.1	-2.8	0.4	·
Vif A3G	5%	21%	-3%	·	7%	4%	2%	-2%&-4%
LANA-H2B inh	0.6	-1.7	-1.4	5.5	1.3	-3.3	-3.9	-8.6
Calb FLC	-6	-23	11	-4	-5	2	6	11
Bfl-1 A1 inh	0.5	-0.6	1.2	0.2	0.5	0.1	0.0	0.2
RanGTP-Imp inh	4.4	-1.1	3.0	5.4	0.1	-0.9	-5.2	3.7

The list goes on.
(17) CC1(C)CC(=O)C2=C(C1)c1c(ccc3ccccc13)NC2c1ccco1 (stereo not drawn)
(18) CN(c1ccc(C(=O)Nc2ccccc2C(F)(F)F)cc1)S(C)(=O)=O
(19) Clc1cccc(-c2ccnc3nc(-n4cccc4)nn23)c1
(20) CCOC(=O)c1ccc2c(c1)nc(-c1ccccn1)n2CC
(21) COc1ccc(Cn2cccc(NC(=O)Nc3cccc(C#N)c3)c2=O)cc1
(22) CCc1ccccc1Nc1nc(N)nc(COC(=O)CCS(=O)(=O)c2ccccc2)n1
(23) OCC1(Cc2ccccc2)CCN(Cc2ccccn2)CC1
(24) COc1ccc(N(C(=O)/C=C/c2ccccc2)C2=CC3CCC(C2)N3C)cc1 (stereo not drawn)
Compound	17	18	19	20	21	22	23	24
Beta apoptosis	3	0	-2	2	-2	-2	-6	4
T cruzi repl	12	-20	7	-7	24	-20	·	4
AF4-AF9 inh	1.0	·	·	0.0	·	-6.6	-2.7	-13
Vif A3G	8%	15%	-7%	·	-2%	-1%	5%	1%
LANA-H2B inh	-7.3	-5.1	-0.1	1.5	-0.1	0.1	0.3	-5.8
Calb FLC	9	-5	-6	2	10	0	-30	2
Bfl-1 A1 inh	-0.8	0.2	-0.3	-3.2	-0.4	-0.1	1.6	-0.5
RanGTP-Imp inh	2.6	0.2	0.3	5.2	-0.4	·	9.5	3.7

(25) CC1(C)CC(=O)c2c(nn(-c3ccccc3)c2N)C1
(26) COc1ccc(N=Cc2nc(-c3ccccc3)oc2OC(C)=O)cc1
(27) Cc1ccc(Cn2ncc3c(NCCCN(C)C)ncnc32)cc1
(28) Cc1cc(=O)n2nc(N3CCC(C(=O)NCc4cccc(Cl)c4)CC3)sc2n1
(29) CCCOc1ccc2cc(C(=O)NCc3ccccc3)c(=O)oc2c1
(30) c1ccc2c(c1)N1CCN=C1N2CCN1CCCCC1
(31) CSc1cccc(NC(=S)N(CCCN2CCCC2)Cc2cccn2Cc2ccc(Cl)cc2)c1
(32) Oc1ccc(CNc2ccccc2)c2cccnc12
Compound	25	26	27	28	29	30	31	32
Beta apoptosis	-4	-12	-11	2	-5	-5	3	105*
T cruzi repl	-22	-2	45	10	0	-6	56*	-6
AF4-AF9 inh	·	1.0	-0.2	-0.7	0.1	·	23	·
Vif A3G	-7%	-9%	-7%	-4%	·	17%	-7%	14%
LANA-H2B inh	-1.8	0.3	-2.8	-5.9	-4.4	1.0	13*	0.6
Calb FLC	-8	7	-2	-21	-9	1	-6	4
Bfl-1 A1 inh	0.8	0.5	0.5	0.1	-0.5	0.0	-0.2	-0.1
RanGTP-Imp inh	-0.9	0.4	-1.3	0.7	59*	?	-0.3	-2.3

(33) CCCCC(=O)Nc1ccc2c(c1)nc(CCN1CCOCC1)n2C
(34) COC(=O)c1ccc(-n2cnc(Cl)n2)c(F)c1
(35) O=C(c1ccco1)N1N=C(c2cccs2)CC1c1ccc(F)cc1 (stereo not drawn)
(36) CSCCOC(=O)C1=C(C)NC(=O)CC1c1ccccc1Cl (stereo not drawn)
(37) Cc1ccc(C)c(N2CCN(C(=O)c3ccc4nc(N5CCOCC5)sc4c3)CC2)c1
(38) Cc1nc2cc3c(cc2s1)OCO3
(39) C#CCOCCOCCOCCNc1nc(N2CCN(C(=O)[C@H](CCCCN)n3cc([C@@H](N)CO)nn3)CC2)nc(N2CCN(C(=O)[C@H](Cc3cc4ccccc4[nH]3)n3cc([C@@H](N)CO)nn3)CC2)n1
(40) O=C(COC(=O)Cc1cccs1)Nc1ccc(OC(F)(F)F)cc1
Compound	33	34	35	36	37	38	39	40
Beta apoptosis	-3	-5	-4	4	-1	-2	-5	-2
T cruzi repl	-2	-8	22	3	8	-8	·	-13
AF4-AF9 inh	·	·	·	·	6.7	-2.6	·	-4.1
Vif A3G	-2%	6%	3%	3%	·	-18%	-4%	2%
LANA-H2B inh	2.2	4.3	1.6	-3.0	-1.4	5.6	-4.6	-15
Calb FLC	10	0	36	1	-5	8	·	4
Bfl-1 A1 inh	-0.5	0.0	0.1	-1.2	-0.3	0.3	-1.8	-0.8
RanGTP-Imp inh	2.6	-1.8	0.1	0.6	1.6	-1.3	·	-2.4

(41) O=C(Nc1ccc(F)cc1)C1CC(=O)n2cnnc2N1 (stereo not drawn)
(42) COCCN=C1N[C@@H](c2cccc(C(F)(F)F)c2)C(C(=O)OC)=C(C)N1Cc1ccccc1
(43) CC1CCN(C(=O)CSc2nnc(CNC(=O)c3ccc(F)cc3)o2)CC1
(44) CCSc1ccc(C(=O)NCC(=O)O)cc1
(45) COCCNC(=O)CSc1n[nH]c(=O)n1CCc1ccccc1
(46) CCCC(c1nnnn1C(C)(C)CC)N(Cc1ccco1)Cc1cc2ccc(OC)cc2[nH]c1=O (stereo not drawn)
(47) COc1ccc(C(=O)Nc2nnc(C(F)(F)F)s2)cc1
(48) Cc1cc(C(=O)NCc2cccs2)cs1
Compound	41	42	43	44	45	46	47	48
Beta apoptosis	-6	5	-5	-2	2	·	16	-4
T cruzi repl	-5	26	2	-5	-6	34	5	-39
AF4-AF9 inh	-2.0	-2.6	-1.4	-1.1	-1.2	·	·	1.6
Vif A3G	6%	·	·	5%	-2%	6%	-6%	5%
LANA-H2B inh	-1.3	6.6	2.0	-2.9	-0.7	·	-1.5	-1.5
Calb FLC	-10	-8	-1	-5	-8	12	14	-8
Bfl-1 A1 inh	-0.1	-0.5	0.8	-1.4	2.5	·	-4.6	1.4
RanGTP-Imp inh	1.4	3.0	4.1	0.4	2.3	2.2	4.7	8.0

(49) Cc1ccc(NC(=O)c2nnn(-c3cc(C)cc(C)c3)c2N)cc1
(50) CN(C(=O)Nc1ccccc1)C1CCS(=O)(=O)C1 (stereo not drawn)
(51) O=C1COc2ccc(C(=O)COC(=O)CCOc3ccccc3)cc2N1
(52) O=[N+]([O-])c1cc(Cl)cc(/C=N/NC(=S)Nc2cc(S(=O)(=O)N3CCOCC3)ccc2Cl)c1O
(53) CN(C)/C=C(/C#N)C(=O)c1cccc(Oc2ccc(C(C)(C)C)cc2)c1
Compound	49	50	51	52	53
Beta apoptosis	-1	-4	-5	-6	-1
T cruzi repl	9	·	·	-1	20
AF4-AF9 inh	·	·	1.8	3.3	·
Vif A3G	6%	10%	·	·	1%
LANA-H2B inh	2.6	2.9	6.1	5.0	5.7
Calb FLC	-21	-1	·	15	4
Bfl-1 A1 inh	-0.5	1.0	1.5	-0.6	-3.7
RanGTP-Imp inh	-0.8	3.7	·	1.4	0.9
